GIV Gai3 FP: GIV-Galpha-i interaction inhibition; P08753; Galpha-i3/FITC-GIV peptide fluorescence polarization, 90 min; stronger effect = lower value; scaled: aluminum fluoride 0%, vehicle 100%; percent of control (FP), % (no concentration beside the values); 210,000 compounds, 0.42% hits;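 active = replicate mean at 85% of control or lower, very high polarization wells dropped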;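 note: wells of about 15 µL received 100 nL stock; the first replicate is given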
Target sequence (P08753 whole entry, looked up): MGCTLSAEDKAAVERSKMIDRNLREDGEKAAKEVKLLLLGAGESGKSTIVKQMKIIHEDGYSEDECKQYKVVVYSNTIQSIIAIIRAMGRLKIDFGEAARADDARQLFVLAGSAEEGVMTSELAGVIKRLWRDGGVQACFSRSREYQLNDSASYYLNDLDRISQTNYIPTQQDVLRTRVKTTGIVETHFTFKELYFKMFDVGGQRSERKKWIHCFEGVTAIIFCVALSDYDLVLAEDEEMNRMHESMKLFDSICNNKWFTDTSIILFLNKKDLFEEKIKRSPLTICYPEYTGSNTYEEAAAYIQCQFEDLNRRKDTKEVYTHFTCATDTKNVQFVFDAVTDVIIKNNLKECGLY
HCMV UL50-53 inh: inhibitors of HCMV UL50-UL53 nuclear egress complex interaction; AID 1918969; inhibition, % (test concentration not listed); HTRF UL50-UL53 interaction, normalized percent inhibition; 190,000 compounds, 0.15% hits;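 active = both replicates at 50% or more, plus weaker picks with an unusually low signal ratio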;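 note: stock transfer was 100 nL into about 20 µL; 0% = negative control wells and 100% = wells with untagged competitor protein; inactives centre near -12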
Sa growth 42C: inhibitors of Staphylococcus aureus growth at 42 °C | S. aureus RN4220 growth, OD600, 20 h; stronger effect = lower value | 170,000 compounds, 0.53% hits | relative growth, % (test concentration not listed);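 active = growth at 42 °C up to 50% and 20 or more points under that at 30 °C, or under 10% at both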;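 note: 300 nL library stock went into each well; scaled to the means of positive and negative controls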
Sa growth 42C second temp: also measured in Sa growth 42C; calls as there; relative growth, %; measured here: growth at 30 °C;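 optical density after 20 h as mean of two plates; 100% = untreated growth and lower means inhibition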
Active calls of the source: *; x = no result given; & = joins results of further samples.

Second line of a record – GIV Gai3 FP	HCMV UL50-53 inh	Sa growth 42C	Sa growth 42C second temp
- N#Cc1c(F)cccc1NC(=O)C1CCCCC1
    96.3	-15.5	94.3	83.1
- O=C(OCc1csc(-c2ccccc2)n1)c1ccccc1
    x	-17.4	94.6	93.7
- CC(C)Cn1cnc2nc(CSc3ccccc3NC(=O)COc3ccccc3Cl)cc(=O)n21
    97.3	-36.6	x	x
- O=C(CN1CCC(C(=O)Nc2ccccc2)CC1)Nc1cc(C(F)(F)F)ccc1-n1cncn1
    x	10.2	111.8	103.4
- Cc1cc(N2CCC(C(=O)O)CC2)n2nc(C)c(-c3ccc(Cl)cc3)c2n1
    103.5	-1.9	93.2	95.6
- Cc1cccc(N2CCN(c3ncnc4c3c(-c3ccccc3)cn4-c3ccccc3)CC2C)c1 (configuration not stated)
    106.0	x	112.1	97.8
- CCOc1ccccc1CNC(=O)c1ccc(NC(=O)N2CCSc3ncccc32)cc1
    102.8	x	107.0	86.8
- COc1ccccc1/C=C/c1nc(-c2ccc3c(c2)[nH]c(=O)n3C(C)C)no1
    103.4	-28.2	x	x
- CCC(N)C12CC3CC(CC(O)(C3)C1)C2 (configuration not stated)
    104.8	-19.2	85.7	85.1
- Cc1cc(C)n(-c2nc3cc(Cl)ccc3nc2Nc2ccc3c(c2)n(C)c(=O)n3C)n1
    3.9*	4.8	96.3	85.4
- COC(=O)c1ccccc1NC(=O)C(Cc1ccccc1)N1Cc2ccccc2C1=O (configuration not stated)
    105.4	x	114.7	99.9
- CCOC(=O)C1CCN(C(=O)c2nn(-c3ccc(OC)c(Cl)c3)c(=O)c3c2c2ccccc2n3C)CC1
    104.9	-1.6	106.2	82.1
- COc1ccccc1OCc1nnc(SCC(=O)N(C)C)o1
    99.6	6.8	94.5	106.6
- CC1=NS(=O)(=O)c2cc(S(=O)(=O)CC(=O)NC3CCCCC3)ccc2N1
    101.7	-18.6	x	x
- N#C/C(=C\N1CCc2ccccc21)S(=O)(=O)Cc1ccco1
    97.7	-1.8	95.9	86.4
- CCC(=O)Nc1nc(-c2ccc(Cl)c(Cl)c2)nc2c1c(=O)oc1ccccc12
    107.4	-3.4	104.6	93.1
- O=C(NC(=S)Nc1ccccc1)c1ccco1
    97.8	-12.5	114.2	93.3
- Cc1noc2c1C(c1ccsc1)C1=C(CC(c3ccccc3)CC1=O)N2 (configuration not stated)
    104.8	-13.9	x	x
- O=C1Nc2ccc(Cl)cc2C12SCCS2
    105.4	-1.1	94.3	106.3
- COc1ccc(C)cc1NC(=O)c1cc2ccccn2n1
    103.5	x	84.0	98.4
- Cc1cc(C)cc(NC(=O)Cn2c(=O)n(Cc3ccco3)c(=O)c3oc4ccccc4c32)c1
    101.6	x	109.1	92.1
- CCOc1ccc(N(CC)C(=O)C2CCCN(S(=O)(=O)c3cccc4nsnc34)C2)cc1 (configuration not stated)
    102.2	-95.7	84.8	83.2
- CN(C)C(=O)CN1CCN(c2ccc(NC(=O)C3CCC3)c(C(=O)O)c2)CC1
    96.8	-14.4	x	x
- Cc1cc(C)c2c(CC(=O)Nc3sc4c(c3C(=O)NCC3CCCO3)CCC4)coc2c1 (configuration not stated)
    105.2&104.4	9.9	90.9	88.2
- CCOC(=O)c1ccc(OCc2nc(-c3ccc(OC)c(OC)c3)no2)cc1
    100.2	x	97.1	91.4
- COc1ccc(C2=C/C(=C(/C#N)C(=O)NCc3ccco3)c3cc(C)ccc3O2)cc1
    x	5.0	85.2	95.7
- Cc1ccc(-n2ncc(C(=O)N3CCN(c4ccc(Cl)cc4)CC3)c2C2CCN(C(=O)OC(C)(C)C)CC2)c(C)c1
    99.9	x	90.7	87.7
- CN(C)C(=O)CN1C(=O)c2ccccc2S1(=O)=O
    x	-25.1	78.1	89.3
- O=C1CN(c2ccc(Cl)cc2)C2(CCCCC2)S1
    102.5	-3.9	105.8	76.3
- COc1ccc(CCNC(=O)c2cc3c(s2)-c2c(C)cccc2OC3)c(OC)c1
    102.3	-26.8	114.0	84.1
- CCCCCNC(=O)C1CC(=O)N(CCc2c[nH]c3ccc(Cl)cc23)C1 (configuration not stated)
    104.0	-14.7	x	x
- CC(C)(C)OC(=O)N1CCc2nc(N3CCN(c4ncccn4)CC3)ncc2C1
    103.6	-2.3	117.0	90.5
- c1ccc(Cn2nnnc2-c2ccco2)cc1
    x	-34.3	98.9	78.8
- O=C(NCc1ccc(F)cc1)c1ccc2c(c1)nnn2C1CCCC1
    105.9	x	95.7	97.9
- CCN(CC)C(=O)C1CCN(c2nnc(C)c3c(C)n(-c4ccc(Cl)cc4)nc23)CC1
    108.5	x	91.1	88.0
- CCCCOC(=O)Nc1cc(C)ccc1C
    98.9	-8.0	105.3	55.9
- CC(=O)Nc1ccsc1C(=O)O
    105.2	3.8	118.7	105.2
- CCN(CC)S(=O)(=O)c1ccc(S(=O)(=O)N(Cc2ccc(F)cc2)Cc2cccc(OC)c2OC)cc1
    104.2	-7.4	x	x
- C=CCn1c(CNC(=O)c2ccccc2)nnc1SCC(=O)N1CCN(c2ccccc2)CC1
    103.4	-2.1	101.8	97.8
- CCCCC(=O)Nc1nonc1-c1ccc(OCC)c(C)c1
    107.1	-19.3	x	x
- O=C(OC1CCCCC1=O)c1ccc(-c2cccc(C(F)(F)F)c2)o1 (configuration not stated)
    x	-24.6	104.3	98.5
- Cc1ccc(NC(=O)c2cc(S(=O)(=O)NCCC3=CCCCC3)ccc2F)cc1F
    97.2	x	115.4	95.8
- C=CCn1c(CNC(=O)c2cccs2)nnc1SCC(=O)c1ccc(Br)cc1
    100.6	-2.8	92.2	95.1
- CCOC(=O)c1ccc(COc2nc3ccccc3nc2-c2ccccc2NC(C)=O)o1
    106.1	-7.5	126.8	101.6
- CCOC(=O)c1ccccc1NC(=O)Cn1cc(C(=O)c2ccc(OC)cc2)c(=O)c2ccc(C)nc21
    108.4	2.5	x	x
- Cc1cc(C)n(/N=C2/C(=O)Nc3ccc(Br)cc32)c(=O)c1C#N
    x	-30.6	62.5	79.8
- c1cncc(CNCc2cccnc2)c1
    103.0	14.1	104.8	94.3
- Cc1cccc(NC(=O)Nc2nnc(N3CCCCC3C)s2)c1C (configuration not stated)
    97.2	x	115.5	90.7
- CSc1nc(C)nc(N/C=C(\C#N)S(=O)(=O)c2ccccc2Cl)n1
    107.6	-17.5	100.7	96.9
- Cc1ccc(NC(=O)C(=O)NCCN2CCN(S(=O)(=O)c3ccc(F)cc3)CC2)cc1Cl
    93.3	-20.0	x	x
- Cc1ccc(-c2cc3c4c(C)n(Cc5ccc6c(c5)OCO6)c(C)c4c(C)nn3c2)o1
    108.9	-10.1	96.8	79.3
- CCOC(=O)c1[nH]c2c(c1-c1ccccc1)C(=O)CC(c1cccs1)C2 (configuration not stated)
    108.7	-5.3	106.4	79.4
- COC(=O)c1ccc(NCC(=O)N2CC(C)CC(C)C2)cc1 (configuration not stated)
    x	-25.6	99.0	89.0
- CCOC(=O)c1c(C)[nH]c(C(=O)C(C)OC(=O)C2CC(=O)N(CCc3ccccc3)C2)c1C (configuration not stated)
    x	-29.5	97.0	82.7
- Cc1ccc(CNC(=O)Nc2cc(C(=O)NCc3cccc(F)c3)ccc2N2CCCC2)cc1
    109.8	x	103.9	104.7
- NC(=O)c1nnn(-c2cccc(C(F)(F)F)c2)c1-c1ccccc1
    99.5	-24.2	84.2	83.6
- CC(C)(C)c1cc(C(=O)CSc2nncn2-c2ccccc2)cc(C(C)(C)C)c1O
    98.6	-15.7	x	x
- COC(=O)C1=C(C)NC2=C(C(=O)CCC2)C1c1cc2c(cc1Br)OCO2 (configuration not stated)
    100.0	-10.4	77.0	88.7
- O=C(/C=C/c1cn(-c2ccccc2)nc1-c1ccc(F)cc1)N1CCOCC1
    x	-42.4	90.5	73.5
- CCc1nc(SCC(=O)c2ccc(C)cc2)c(C#N)cc1C
    101.9	-3.0	93.2	84.8

Remaining list, next part.
Second line of a record – GIV Gai3 FP	HCMV UL50-53 inh	Sa growth 42C	Sa growth 42C second temp
- NC(=O)COc1ccc(C23CC4CC(CC(C4)C2)C3)cc1
    x	0.4	93.2	89.0
- O=C1c2ccccc2C(=O)N1c1ccc(O)cc1
    101.1	-32.9	100.9	84.0
- CC(C)P(=O)(Cc1cccc(C#N)c1)C(C)C
    x	-16.7	70.9	89.3
- CC(C)C(=O)Nc1ccc2c(c1)oc(=O)n2C
    100.7	-11.2	x	x
- C=CCN=c1scc(-c2ccc(O)c(C(N)=O)c2)n1N=C1CCCC1
    x	-14.4	102.4	83.6
- CCc1nc(-c2cc(S(=O)(=O)N3CCCC(C(=O)Nc4ccccc4OC)C3)c(C)s2)no1 (configuration not stated)
    108.6	3.1	x	x
- COc1cccc(OCC(=O)NC2CC(=O)N(c3cccc(OC)c3)C2)c1 (configuration not stated)
    98.1	x	122.5	94.7
- COc1ccc(N=Cc2ccc3ncccc3c2)cc1N
    x	-41.7	88.5	65.6
- CC(=O)N1CCc2cc(S(=O)(=O)NC(CC(C)C)C(=O)NCCc3cccc(C)c3)ccc21 (configuration not stated)
    106.5	-29.5	97.2	88.7
- O=C(O)CCCC(=O)N1N=C(c2ccc(Br)cc2)CC1c1ccc(Cl)cc1 (configuration not stated)
    97.1	-48.0	x	x
- CC(C)N1CN=C(Nc2nc3ccccc3o2)NC1
    109.7	x	91.1	87.8
- Cc1ccc(C)n1-c1ccc2c(c1)OCCO2
    x	16.8	92.9	101.0
- Cc1nc(-n2nc(C)c(Cc3ccccc3Cl)c2C)sc1C(=O)N1CCCCC1C (configuration not stated)
    101.2	-19.1	108.9	91.4
- Cc1c(N=c2scc(-c3ccc4c(c3)NC(=O)CO4)n2Cc2ccccc2)c(=O)n(-c2ccccc2)n1C
    x	-2.9	102.3	84.3
- CN(C)CCNC(=O)c1ccccn1
    108.7	x	80.3	102.0
- CC1=C(Cc2cc3ccc(=O)oc3cc2O)CC(C)(C)CC1
    99.8	x	105.9	45.7
- O=C(Nc1ccccc1)OCc1ccc(-c2cc(C(F)(F)F)cc(C(F)(F)F)c2)o1
    98.0	-17.8	95.3	90.3
- Cc1ccc(N=Nc2c(N)n[nH]c2N)cc1
    101.0	-52.1	89.9	92.3
- Cc1ccc(C(=O)Nc2ccc(S(=O)(=O)N3CCOCC3)cc2)cc1C
    102.7	10.6	99.8	97.0
- COCCNC(=O)c1ccc2c(c1)N(Cc1ccccc1)C(=O)CS2=O (configuration not stated)
    96.6	2.8	x	x
- COC(=O)/C=C1/Nc2ccccc2SC1=O
    x	1.5	108.5	91.9
- CCN(CCCNC(=O)c1cc2cc3cc(OC)ccc3nc2s1)c1cccc(C)c1
    103.6	-17.6	123.5	85.0
- COc1ccccc1C1CC(=O)Nc2c(S(=O)(=O)c3ccccc3)csc21 (configuration not stated)
    102.9	8.7	x	x
- CCC(CC)c1nn2cc(-c3ccccc3)nc2s1
    99.1	8.7	82.3	76.4
- Cc1c(C(=O)NCCc2ccc(Cl)cc2)oc2ccc(S(=O)(=O)N3CCC(C)CC3)cc12
    103.0&103.0	-14.3	107.6	91.1
- COc1cc(-c2noc(-c3ccc(N4CCN(C)CC4)c([N+](=O)[O-])c3)n2)cc(OC)c1OC
    105.6	-3.7	95.2	83.2
- COc1ccc(C(=O)CCC(=O)Nc2cccc(C(C)=O)c2)cc1
    106.3	x	118.5	82.4
- CN(C(=O)c1noc2c1CCCC2)c1ccccc1Cl
    99.7	-35.4	97.3	84.5
- COc1ccccc1C(=O)NCC(=O)Nc1ccc(-c2nnc3n2CCCCC3)cc1
    x	0.5	84.5	100.0
- CCC(=O)NC(c1ccco1)c1cc(Cl)c2cccnc2c1O (configuration not stated)
    100.5	x	71.7	55.1

A different layout for some results above.
| Molecule | GIV Gai3 FP | HCMV UL50-53 inh | Sa growth 42C | Sa growth 42C second temp |
| --- | --- | --- | --- | --- |
| COC(=O)c1ccc(NCC(=O)N2CC(C)CC(C)C2)cc1 (configuration not stated) | x | -25.6 | 99.0 | 89.0 |
| CCOC(=O)c1c(C)[nH]c(C(=O)C(C)OC(=O)C2CC(=O)N(CCc3ccccc3)C2)c1C (configuration not stated) | x | -29.5 | 97.0 | 82.7 |
| Cc1ccc(CNC(=O)Nc2cc(C(=O)NCc3cccc(F)c3)ccc2N2CCCC2)cc1 | 109.8 | x | 103.9 | 104.7 |
| NC(=O)c1nnn(-c2cccc(C(F)(F)F)c2)c1-c1ccccc1 | 99.5 | -24.2 | 84.2 | 83.6 |
| CC(C)(C)c1cc(C(=O)CSc2nncn2-c2ccccc2)cc(C(C)(C)C)c1O | 98.6 | -15.7 | x | x |
| COC(=O)C1=C(C)NC2=C(C(=O)CCC2)C1c1cc2c(cc1Br)OCO2 (configuration not stated) | 100.0 | -10.4 | 77.0 | 88.7 |

Additional entries.
Second line of a record – GIV Gai3 FP	HCMV UL50-53 inh	Sa growth 42C	Sa growth 42C second temp
- CCOc1ccc2nc(NC(=O)c3ccccc3)sc2c1
    101.0	-35.9	101.5	82.1
- CCOc1ccc(-n2c(=O)c3sc4ccccc4c3n(Cc3ccc(F)cc3)c2=O)cc1
    103.3	4.6	110.9	92.2
- NN(CCc1ccncc1)C1=NS(=O)(=O)c2ccccc21
    107.1	-24.8	85.9	90.7
- CCCOc1ccc(C(=O)Nc2c(C(=O)c3ccc(C)cc3)oc3ccccc23)cc1
    106.7	-9.7	85.8	88.5
- CCn1nccc1C(=O)O
    103.4	-9.4	116.4	94.9
- CC(=O)Nc1ccccc1NC(=O)C(C)C
    101.8	-3.1	101.9	81.2

Assay outcomes: PubChem BioAssay, ICCB-Longwood Screening Facility, Harvard Medical School
